TRPML1 agonist = human mucolipin-1 channel agonism; Q9GZU1; TRPML1-expressing cells, Ca2+ dye fluorescence, FDSS; host cell line not named in the record; reference of the full effect not given here; activation, % (no concentration beside the values); 410,000 tested, 0.12% active; AID 624414; in the data active = activation above about 50%; inconclusive = about 30% to 50%; inactive = below about 30%; note: 0% is about no effect; the text of the record puts the active cut at 80%
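Kinetic FDSS Ca2+ read in Tet-induced TRPML1-DL cells (ABD Ca8 dye plus quencher, 45-90 min RT loading): baseline, then compound, then 110 s agonist window; EC80 agonist 54-4 at 4uM final added afterwards for a 110 s antagonist window.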
TRPML1 inh = blocks the human TRPML1 channel | Q9GZU1 | TRPML1-inducible cells, Ca2+ dye fluorescence, FDSS; active compounds read low; inhibition of EC80 agonist-evoked calcium signal | activity change, negative = inhibition, % (test concentration not listed) | 390,000 tested, 0.02% active; in the data active means activity change below about -50%; inconclusive means about -30% to -50%; inactive means above about -30%;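 note: stimulus is agonist 54-4 at its EC80 concentration; % is set by controls: 0 for no effect and ±100 for the full control effect; compound concentration not given in the record; the text of the record puts the active cut at -80%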
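Tet-induced TRPML1-DL cells loaded with Ca8 no-wash calcium dye were read kinetically on FDSS. Compound addition was followed by EC80 agonist 54-4 (4 uM final); inhibition was read over 110 s.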
PINK1 expr mod = modulators of PINK1 expression; PINK1 immunofluorescence, high-content cytometry, 24 h; Potency, µM (titrated, usually from 76.6 µM), without a hit: at the highest dose activation (PINK1 increase), most hits filed as activators; 410,000 tested, 0.2% active; active = well fitted activation curve with a large enough effect; inconclusive = small, poorly fitted or top-dose-only effect; inactive = flat fitted curve, though single readings scatter; cell line not stated here;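 note: potency is the fitted concentration of half-maximal effect; % of control where 0% means no effect; nearly all actives have a fitted effect of over 65% in size; a mitochondrial uncoupler was the plate control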
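PINK1 protein level read as immunofluorescence by microplate cytometer in a fixed, stained stable cell line after 24 h exposure to five compound concentrations, with CCCP as control.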
D2 agonist = human D2 receptor agonism in beta-arrestin assay; P14416; DiscoveRx PathHunter D2 beta-arrestin, luminescence, 90 min; 100% = 57 uM dopamine signal; activation, % (test concentration not listed); 360,000 tested, 0.084% active; AID 624465; in the data active = activation above about 40%; inconclusive = about 15% to 40%; inactive = below about 15%; note: compound concentration not given in the record; the text of the record calls up to 30% inactive
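Agonist mode: compounds alone added to overnight-plated D2 PathHunter cells for 90 min at 37 C, with 57 uM final dopamine (EC100) defining full response. Beta-arrestin recruitment detected by chemiluminescent reagent, read after 1 h at ambient temperature.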
Six1-Eya2 blk = Six1/Eya2 interaction inhibition. Q15475+O00167. AlphaScreen GST-Six1/His-Eya2 binding, biochemical; active compounds read low; control for the full effect not named in the record. activity change, % (test concentration not listed). 360,000 tested, 0.56% active. AID 651725; in the data active = activity change below about -65%; inconclusive = about -30% to -65%; inactive = above about -30%; note: % is set by controls: 0 for no effect and ±100 for the full control effect
Target sequence (O00167 whole entry, looked up): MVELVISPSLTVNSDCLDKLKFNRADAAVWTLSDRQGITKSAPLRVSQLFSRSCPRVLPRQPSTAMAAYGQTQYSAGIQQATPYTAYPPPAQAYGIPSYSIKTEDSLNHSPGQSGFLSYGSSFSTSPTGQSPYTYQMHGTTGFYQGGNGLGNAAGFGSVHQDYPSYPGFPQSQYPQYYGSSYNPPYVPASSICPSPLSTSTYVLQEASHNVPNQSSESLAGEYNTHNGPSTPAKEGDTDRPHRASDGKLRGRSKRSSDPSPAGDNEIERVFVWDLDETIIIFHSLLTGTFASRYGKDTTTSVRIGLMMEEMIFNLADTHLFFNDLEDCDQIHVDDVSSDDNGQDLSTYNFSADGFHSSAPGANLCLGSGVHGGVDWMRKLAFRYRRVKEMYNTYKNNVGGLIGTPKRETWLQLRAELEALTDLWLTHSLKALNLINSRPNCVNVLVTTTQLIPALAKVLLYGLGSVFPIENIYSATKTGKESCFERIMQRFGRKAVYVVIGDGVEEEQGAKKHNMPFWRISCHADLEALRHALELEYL
Target sequence (Q15475 whole entry, looked up): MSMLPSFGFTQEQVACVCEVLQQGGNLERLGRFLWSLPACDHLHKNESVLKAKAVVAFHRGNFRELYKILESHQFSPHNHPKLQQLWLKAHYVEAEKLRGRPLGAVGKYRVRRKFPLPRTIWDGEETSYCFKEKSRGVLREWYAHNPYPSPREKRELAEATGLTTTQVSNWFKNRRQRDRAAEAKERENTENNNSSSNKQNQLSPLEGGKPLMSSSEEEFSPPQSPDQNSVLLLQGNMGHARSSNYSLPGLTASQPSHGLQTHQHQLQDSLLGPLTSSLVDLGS
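Homogeneous AlphaScreen proximity assay pairing GST-Six1 with His-tagged Eya2 (added as 5X mix: 250 nM and 500 nM) in 50 mM Tris pH 8.0, 300 mM NaCl, 1 mM TCEP. Glutathione donor and nickel acceptor beads; 1 h, 37 °C, dark.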
CtBP-E1A blk = CtBP/E1A binding inhibition | AlphaScreen GST-E1A/His-CtBP binding, 1536-well; active compounds read low; control for the full effect not named in the record | activity change, % (no concentration beside the values) | 340,000 tested, 0.49% active | AID 651724; in the data active means activity change below about -65%; inconclusive means about -30% to -65%; inactive means above about -30%; note: % is set by controls: 0 for no effect and ±100 for the full control effect
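Protein mix (5X: 125 nM each GST-E1A, His-CtBP) was incubated with pinned compound 2 h at 37 deg C in dark, in 50 mM Tris pH 8.0 buffer with 300 mM NaCl. Glutathione donor and nickel acceptor beads followed; AlphaScreen signal read after 1 h.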
* = called active by the depositor; ? = inconclusive; · = not tested or not shown; [ ] = remark or other dose.

Screens in order: TRPML1 agonist | TRPML1 inh | PINK1 expr mod | D2 agonist | Six1-Eya2 blk | CtBP-E1A blk
1. CC(=O)c1ccc(N(C(=O)CS(=O)CC(=O)Nc2ccc(F)cc2)C(C(=O)NC2CCCCC2)c2cccs2)cc1 (configuration not stated)
  0.3 | 9 | -0.2% | -3.1 | 6 | -8
2. CC(=O)c1cn(CC(=O)Nc2ccccc2C)c2ccccc12
  0.0 | ? | -1.4% | 4.5 | 2 | 4
3. COc1ccc(-c2cc(C(=O)Nc3ccc(OC)cc3OC)no2)cc1
  1.2 | -2 | 3.6% | -2.8 | 2 | ·
4. COc1ccccc1CNC(=O)c1ccc(-c2nc(CN3CCc4ccccc43)c(C)o2)cc1
  3.0 | 2 | -0.7% | · | · | ·
5. CS(=O)(=O)N1CCC(Oc2cccc(C(=O)NCCCOc3cccnc3)c2)CC1
  -0.2 | -8 | -1.4% | 4.8 | 4 | 1
6. CCOc1cccc(-c2cc(C(=O)Nc3ccon3)c3ccccc3n2)c1
  0.8 | 1 | 5.9% | 1.4 | -15 | -9
7. CCCCOCCCNC(=O)C[C@@H]1C[C@@]2(C(=O)OC)CCCCC=C2N(Cc2ccccc2)C1=O
  -0.7 | · | 0.1% | · | 6 | 4
8. O=C(NCc1ccco1)C(c1ccco1)N(CCc1ccccc1)C(=O)Cn1nnc2ccccc21 (configuration not stated)
  1.8 | 5 | 2.8% | -0.6 | -11 | -4
9. COc1ccc(CCNC(=O)CCn2c(=O)c3ccccc3n(Cc3c(C)cc(C)cc3C)c2=O)cc1OC
  0.6 | 1 | 0.0% | · | · | ·
10. CC(C)(C)OC(=O)N1CCC(c2c(C(=O)N3CCN(C(=O)c4ccco4)CC3)cnn2-c2ccccc2)CC1
  0.6 | 6 | -0.8% | · | · | ·

Molecules listed so far with sulfur (2):
Screens in order: TRPML1 agonist | TRPML1 inh | PINK1 expr mod | D2 agonist | Six1-Eya2 blk | CtBP-E1A blk
1. CC(=O)c1ccc(N(C(=O)CS(=O)CC(=O)Nc2ccc(F)cc2)C(C(=O)NC2CCCCC2)c2cccs2)cc1 (configuration not stated)
  0.3 | 9 | -0.2% | -3.1 | 6 | -8
5. CS(=O)(=O)N1CCC(Oc2cccc(C(=O)NCCCOc3cccnc3)c2)CC1
  -0.2 | -8 | -1.4% | 4.8 | 4 | 1

Next results.
Screens in order: TRPML1 agonist | TRPML1 inh | PINK1 expr mod | D2 agonist | Six1-Eya2 blk | CtBP-E1A blk
11. CCOc1ccc2ccccc2c1/C=N\NC(=O)c1ccc([N+](=O)[O-])cc1
  1.5 | 15 | 0.9% | 14 | -19 | -9
12. C[C@H]1Oc2ccccc2C(=O)C1C(=O)c1ccccc1 (some centres not stated)
  0.9 | 4 | 3.2% | -7.6 | 8 | -6
13. CC1(C)CC(=O)c2c(O)cc(OCC(=O)Nc3ccc(S(N)(=O)=O)cc3)cc2O1
  · | · | -0.1% | -2.2 | 1 | 0
14. COc1ccc(-c2nc(C#N)c(N3CC(C)OC(C)C3)o2)cc1OC (configuration not stated)
  -0.6 | 15 | 1.9% | -3.0 | -2 | -1
15. Cc1cc(C)c(NC(=O)C2CCCN(S(=O)(=O)c3c(C)noc3/C=C/N(C)C)C2)c(C)c1 (configuration not stated)
  -0.3 | -14 | 2.1% | -2.1 | -4 | -3
16. NC(=O)c1ccc(NC(=O)COC(=O)CCSc2ccccc2)cc1
  -0.7 | 1 | 2.4% | -1.9 | -7 | 2
17. O=C(NCc1ccc2[nH]c3c(c2c1)CCCC3)c1ccc(S(=O)(=O)N2CCCCC2)cc1
  -0.5 | 9 | 1.4% | -3.1 | -10 | -27
18. Cc1cnc(NC(=O)Cc2ccccc2F)s1
  1.0 | -29 | 2.7% | -3.5 | 2 | 15
19. Nc1nc(-c2ccccc2)c(N=Nc2ccccc2Cl)s1
  4.7 | 22 | 0.6% | -12 | -76* | -67*
20. COc1ccc(C(=O)NC2CCCc3c2cnn3-c2cc(F)cc(F)c2)c(OC)n1 (configuration not stated)
  -1.1 | 1 | 2.0% | -10 | -1 | 3

Another view of part of the listing above.
| item | Structure | TRPML1 agonist | TRPML1 inh | PINK1 expr mod | D2 agonist | Six1-Eya2 blk | CtBP-E1A blk |
| --- | --- | --- | --- | --- | --- | --- | --- |
| 12 | C[C@H]1Oc2ccccc2C(=O)C1C(=O)c1ccccc1 (some centres not stated) | 0.9 | 4 | 3.2% | -7.6 | 8 | -6 |
| 13 | CC1(C)CC(=O)c2c(O)cc(OCC(=O)Nc3ccc(S(N)(=O)=O)cc3)cc2O1 | · | · | -0.1% | -2.2 | 1 | 0 |
| 14 | COc1ccc(-c2nc(C#N)c(N3CC(C)OC(C)C3)o2)cc1OC (configuration not stated) | -0.6 | 15 | 1.9% | -3.0 | -2 | -1 |

Random excerpt: 5 entries already listed, in no set order.
Screens in order: TRPML1 agonist | TRPML1 inh | PINK1 expr mod | D2 agonist | Six1-Eya2 blk | CtBP-E1A blk
2. CC(=O)c1cn(CC(=O)Nc2ccccc2C)c2ccccc12
  0.0 | ? | -1.4% | 4.5 | 2 | 4
4. COc1ccccc1CNC(=O)c1ccc(-c2nc(CN3CCc4ccccc43)c(C)o2)cc1
  3.0 | 2 | -0.7% | · | · | ·
7. CCCCOCCCNC(=O)C[C@@H]1C[C@@]2(C(=O)OC)CCCCC=C2N(Cc2ccccc2)C1=O
  -0.7 | · | 0.1% | · | 6 | 4
5. CS(=O)(=O)N1CCC(Oc2cccc(C(=O)NCCCOc3cccnc3)c2)CC1
  -0.2 | -8 | -1.4% | 4.8 | 4 | 1
13. CC1(C)CC(=O)c2c(O)cc(OCC(=O)Nc3ccc(S(N)(=O)=O)cc3)cc2O1
  · | · | -0.1% | -2.2 | 1 | 0

(more compounds)
Screens in order: TRPML1 agonist | TRPML1 inh | PINK1 expr mod | D2 agonist | Six1-Eya2 blk | CtBP-E1A blk
21. COc1ccc(CN2C(=O)C(CC(C)C)Nc3ncnc(N4CCOCC4)c32)cc1 (configuration not stated)
  -0.1 | 7 | -0.4% | -1.6 | 5 | 3
22. CC1(C)CN=C(N(C(=O)Nc2ccccc2)c2ccccc2F)S1
  0.8 | 6 | -1.4% | -1.1 | 9 | 10
23. CCN(CC(=O)NCc1ccc(Cl)cc1)C(=O)c1ccc(S(=O)(=O)N(C)C)cc1
  -0.3 | -9 | 2.1% | -0.2 | -14 | 12
24. COc1cccc(-c2ccc(-c3noc(-c4ccccc4F)n3)c(OC)n2)c1
  -0.6 | 11 | -0.8%[38.3 µM] | -2.9 | 8 | 8
25. S=C(NC1CCCCC1)NC1CC2C=CC1C2 (configuration not stated)
  1.0 | -12 | 1.0% | -3.8 | -6 | 0
26. C=CCNC(=O)C(=O)Nc1cc2c3c(c1)CCC(=O)N3CCC2
  0.8 | 13 | 0.2% | -1.4 | 5 | ·
27. C/C(=N/OC(=O)c1cccc(Cl)c1)c1nccs1
  0.4 | -11 | · | -0.8 | 14 | 0
28. Cc1cc(Cl)ccc1Oc1ncc(CN2CCN(c3ccccc3)CC2)s1
  0.0 | 2 | 0.5% | ? | -23 | -14
29. CC(NCc1cccn1C)c1ccccc1 (configuration not stated)
  -0.1 | -3 | 2.6%[38.3 µM] | -1.5 | -5 | -8
30. COc1ccc(-n2cnnc2SCC(=O)c2cc(C)n(Cc3cccs3)c2C)cc1
  1.5 | -10 | 0.4% | -2.2 | -20 | -16
31. CC(C)(C)c1nc2ccccc2c2nnc(SCC(=O)Nc3nc4ccccc4s3)n12
  2.0 | -6 | 6.8%[38.3 µM] | 3.1 | -1 | 10
32. CCN(CC)S(=O)(=O)c1ccc(OC)c(NC(=O)CC2CCCC2)c1
  0.0 | 2 | 0.4% | -1.7 | 3 | -1
33. COc1cc2c(cc1OC)C(COc1cc(C)cc(C)c1)N(C(=O)COc1ccccc1)CC2 (configuration not stated)
  1.1 | 21 | ? | · | · | ·
34. CCOc1ccc(CCNC(=O)CCc2nc3ccccc3[nH]2)cc1OCC
  -0.9 | -11 | 2.5% | -1.8 | 9 | -2
35. CC(CN1CCOCC1)OC(=O)CCc1ccccc1 (configuration not stated)
  -0.4 | -9 | 1.3% | -0.5 | 1 | 0
36. COc1ccc(CCNc2cc(C)nc(N)n2)cc1OC
  4.7 | 4 | 2.1% | 1.3 | -5 | ·
37. Cc1cc(=O)oc2c3c(cc(OCC(=O)NC(Cc4ccc(Cl)cc4)C(=O)O)c12)OC(C)(C)CC3 (configuration not stated)
  · | · | 2.0% | 3.5 | -6 | 7
